Tgondii IFNg = blocks Toxoplasma gondii growth in the presence of IFN-gamma | Toxoplasma gondii growth in IFN-gamma-treated host cells; hits give low values; reference of the scale not given here | activity change, negative = inhibition, %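 (about 20 µM by stock and volumes)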 | 69,000 tested, 3.8% active | AID 1259416;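 active means below -70%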;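 further: host cells are HeLa cells infected with Toxoplasma gondii; parasite growth read as luciferase light; one replicate is shown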
Numbers without * were called inactive; & = joins results of further samples; ! = not active in a repeat.

Start of the data: the first 7 records as a preview:
SMILES | Tgondii IFNg
Cc1noc(C)c1CCC(=O)N1CCN2CCN(C)C(=O)C2C1 (stereo not given) | 0.2
CC(C)(C)c1o[nH]c(=O)c1CC(N)C(=O)O (stereo not given) | 20.5&18.9
CCOCc1cncc2c1CCN(S(=O)(=O)c1cccs1)C2 | -11.3
C=CCOCc1cncc2c1CCN(S(=O)(=O)C1CC1)C2 | 1.7
CN1CC2C[C@@]2(NC(=O)c2cccc(F)c2)C1 (stereo not given in full) | 1.2
NCCc1c[nH]c2ccc(O)cc12 | 8.1
COc1ccc(OC)c(NC(=O)c2cc3cccnc3n(Cc3ccccc3)c2=O)c1 | 25.2

The listing, repeating the preview:
SMILES | Tgondii IFNg
Cc1noc(C)c1CCC(=O)N1CCN2CCN(C)C(=O)C2C1 (stereo not given) | 0.2
CC(C)(C)c1o[nH]c(=O)c1CC(N)C(=O)O (stereo not given) | 20.5&18.9
CCOCc1cncc2c1CCN(S(=O)(=O)c1cccs1)C2 | -11.3
C=CCOCc1cncc2c1CCN(S(=O)(=O)C1CC1)C2 | 1.7
CN1CC2C[C@@]2(NC(=O)c2cccc(F)c2)C1 (stereo not given in full) | 1.2
NCCc1c[nH]c2ccc(O)cc12 | 8.1
COc1ccc(OC)c(NC(=O)c2cc3cccnc3n(Cc3ccccc3)c2=O)c1 | 25.2
CC1CN=C(NCc2ccccc2)S1 (stereo not given) | 35.1
Cc1ccccc1NC(=O)c1cc2cccnc2n(Cc2ccccc2)c1=O | 41.7
CCN(CC)c1ccc(NC(=O)c2cc3cccnc3n(Cc3ccc(F)cc3)c2=O)c(C)c1 | 216.2
c1ccc(CCCN2CCN(CCOC(c3ccccc3)c3ccccc3)CC2)cc1 | 4.5&-45.1
O=C(Nc1cccnc1)c1cc2cccnc2n(Cc2ccc(F)cc2)c1=O | 64.9
C1CCC(CN2CCO[C@H]3CNC[C@H]3C2)C1 | -53.4
COC(=O)[C@@H]1[C@@H](CO)[C@@H]2Cn3c(ccc(-c4cccc(F)c4)c3=O)[C@H]1N2Cc1ccncc1 | -1.2
O=C(NC1CCCC1)c1cc2cccnc2n(Cc2ccc(F)cc2)c1=O | -0.4
O=C(/C=C/c1ccccc1)C1C(=O)NC23CCCCC2C1c1ccccc1O3 (stereo not given) | -64.2
CC(C)N1CCN(C)C2(CCN(Cc3ccncc3)CC2)C1=O | 3.9
O=C(Nc1ccc(Oc2ccccc2)cc1)c1cc2cccnc2n(Cc2ccc(Cl)cc2)c1=O | 42.5
C=C1[C@@H](C)[C@H]2[C@H](Cc3ccccc3)NC(=O)[C@]23OC(=O)/C=C/[C@H](O)CCC[C@@H](C)C/C=C/[C@H]3[C@@H]1O | -97.7*
O=c1cccc2n1C[C@H]1CNCC2C1 | 10.3
CC(=O)[C@H]1CC[C@H]2[C@@H]3CC[C@H]4C[C@](C)(O)CC[C@]4(C)[C@H]3CC[C@]12C | 13.7
Cc1ncc(CO)c(CN2CCCC(C(=O)c3ccccn3)C2)c1O (stereo not given) | 2.7
CCCC1CC2=CC(=O)CCC2(C)C2CCC3(C)C(CCC3(O)CCC(=O)O)C12 (stereo not given) | 4.7
O=C(Nc1cccc(F)c1)c1cc2cccnc2n(Cc2ccc(F)cc2)c1=O | 47.5
CCS(=O)(=O)NC[C@@]12COC[C@H]1CN(C(C)C)C2 | -2.8
C[N+](C)(C)CC#CCN1CCCC1=O | 11.6
CC(C)(O)C(Cl)(Cl)Cl | 19.7
CCO[C@@H]1CC2CC1CN2Cc1cnn(C)c1 (stereo not given in full) | 83.5
CC(=O)O[C@H]1C[C@@H](OC(C)=O)C(C)(C)C2C[C@@H](OC(C)=O)[C@]3(C)C(CC[C@@]4(C)[C@H](c5ccoc5)C(=O)[C@H]5O[C@]543)[C@]21C (stereo not given in full) | 15.3
N[C@@H](Cc1ccc(O)cc1)C(=O)NCC(=O)NCC(=O)O | -5.6
CCN1C[C@H]2[C@@H](OC)CCN(C(=O)c3cc(C4CC4)on3)[C@H]2C1 | 8.0
CCCCCN1CC2CN(C(=O)Cc3ccc(Cl)cc3)CC21 (stereo not given) | -6.6
CN1C[C@@H](NS(=O)(=O)N(C)C)C[C@@H]2c3cccc4c3c(cn4C)C[C@H]21 | 2.9
O=C(O)COc1cc(Cl)c(Cl)cc1Cl | -7.8
CN1CCC2(CC1)CN(C(=O)CCc1cc(Cl)no1)CCN2C | 1.3
O=C(CCCN1CCC2(CC1)C(=O)N(Cc1cccc(F)c1)CN2c1ccccc1)c1ccc(F)cc1 | -82.8*!

A second format for four compounds above:
CN1CCC2(CC1)CN(C(=O)CCc1cc(Cl)no1)CCN2C
- Tgondii IFNg = 1.3
CN1C[C@@H](NS(=O)(=O)N(C)C)C[C@@H]2c3cccc4c3c(cn4C)C[C@H]21
- Tgondii IFNg = 2.9
C[N+](C)(C)CC#CCN1CCCC1=O
- Tgondii IFNg = 11.6
CCS(=O)(=O)NC[C@@]12COC[C@H]1CN(C(C)C)C2
- Tgondii IFNg = -2.8

Four records picked at random from the list so far:
SMILES | Tgondii IFNg
C=C1[C@@H](C)[C@H]2[C@H](Cc3ccccc3)NC(=O)[C@]23OC(=O)/C=C/[C@H](O)CCC[C@@H](C)C/C=C/[C@H]3[C@@H]1O | -97.7*
CC(=O)[C@H]1CC[C@H]2[C@@H]3CC[C@H]4C[C@](C)(O)CC[C@]4(C)[C@H]3CC[C@]12C | 13.7
O=C(Nc1ccc(Oc2ccccc2)cc1)c1cc2cccnc2n(Cc2ccc(Cl)cc2)c1=O | 42.5
CCO[C@@H]1CC2CC1CN2Cc1cnn(C)c1 (stereo not given in full) | 83.5

Later entries
SMILES | Tgondii IFNg
Cc1nc(CC(=O)N2C[C@H]3C[C@@H](C2)c2cccc(=O)n2C3)cs1 | 38.0
COc1ccccc1CN(CCN(C)C)C(=O)Cc1ccc2c(c1)OCCO2 | 4.2
CCO[C@@H]1C[C@@H]2CN(C(=O)c3ccncc3)CCN2C1 | 25.1
C=CCN1CCN(Cc2cnn(C)c2)Cc2cccnc21 | -43.9
Fc1cnc(N2CCN3C[C@H](OCC4CC4)C[C@@H]3C2)nc1 | -2.7
CCOC(=O)CN1C[C@H]2OCCN(c3ncc(F)cn3)[C@H]2C1 | 2.2
CNC(=O)[C@@H]1COC[C@@H]2CN(CC(C)C)C[C@@H]21 | 101.4
Cc1ccc(-c2cc(CN3CCC4(C3)CN(C)C(=O)O4)on2)cc1 (stereo not given) | 16.9
COc1ccc2c3c([nH]c2c1)C(C)=NCC3 | -44.7
COc1ccc(NC(=O)c2cc3cccnc3n(Cc3ccccc3F)c2=O)c(OC)c1 | -7.5

Source: PubChem BioAssay

The list is partial; count on the stated rates, not on these rows.
